Menin MLL FP FL – displaces fluorescein MLL peptide from human menin. Fluorescence polarization, fluorescein-MLL peptide displacement from menin. FP activity change, % at 61.4 µM. 290,000 tested, under 10 active. AID 1766; inconclusive = falling polarisation curve, or a change in total fluorescence; inactive = total fluorescence flat and polarisation flat or rising; no compound was filed as active; the % refers to the polarisation; negative = inhibition;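 note: % of control where 0% means no effect; inhibitors lower the polarisation; unlabelled MLL peptide was the positive control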
Sfp PPTase inh – Sfp phosphopantetheinyl transferase inhibition | Q9F4F7 | Biochemical Sfp PPTase activity, qHTS | Potency, µM, without a hit: max response, negative = inhibition, hits mostly inhibitors | hit rate 3.5% among 310,000; active = well fitted inhibition curve with a large enough effect; inconclusive = small, poorly fitted or top-dose-only effect, or another doubt; inactive = no such curve, though single readings can be large or run the other way;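 note: the enzyme is Sfp with the accession as filed and its product quenches rhodamine fluorescence; potency is the fitted concentration of half-maximal effect; 0% = enzyme reaction without inhibitor and -100% = no enzyme wells; top concentration of the series not given in the record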
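Fluorescence-quenching assay with 15 nM Sfp, 5 uM rhodamine-CoA and 12.5 uM BHQ-2-labelled ybbR peptide in pH 7.6 Hepes/MgCl2 buffer. Enzyme was pre-incubated with compound for 15 min at room temperature. Rate was taken from the 30-min fluorescence change (525/598 nm).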
PINK1 expr mod – changes PINK1 expression. PINK1 immunofluorescence, high-content cytometry, 24 h. Potency, µM (highest dose often 76.6 µM), for the others: at the top dose activation (PINK1 increase), most hits filed as activators. hit rate 0.2% among 410,000. AID 624263; active = well fitted activation curve with a large enough effect; inconclusive = small, poorly fitted or top-dose-only effect; inactive = flat fitted curve, though single readings scatter; cell line not stated here;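 note: potency is the fitted concentration of half-maximal effect; % of control where 0% means no effect; nearly all actives have a fitted effect of over 65% in size; a mitochondrial uncoupler was the plate control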
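Measures PINK1 amount and localization on or inside mitochondria by immunofluorescence. Stable cells get compounds at 5 concentrations for 24 hours before fixation and staining; CCCP controls included.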
TRPV1 potentiator – potentiators of human vanilloid receptor 1 (TRPV1); AID 540277; potentiation, % at 8.33 µM; TRPV1-expressing cells, Fluo-8 calcium influx, capsaicin EC20 potentiation; host cell line not named in the record; control for the full effect not named in the record; hit rate 0.02% among 320,000; active means potentiation above 80%; inconclusive means 30% to 80%; inactive means below 30%; note: 0% is about no effect
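TRPV1-expressing cells were cultured overnight at 35.5C and loaded with Fluo-8 calcium dye for 40 to 90 min at room temperature. After a 10 s baseline, compound was added and calcium influx was read kinetically for 3 min (ex 480/em 520 nm).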
ClpP mod – qHTS Assay for Activators of ClpP. ATP-dependent Clp protease proteolytic subunit (Bacillus subtilis (strain 168)), P80244. purified B. subtilis ClpP, FRET peptide cleavage, 20 min. Potency, µM (doses to about 57.5 µM), inactives show top-dose activity change, negative = active. hit rate 1.9% among 340,000. AID 651965, 2013; active = well fitted falling curve with a large enough effect; inconclusive = small, poorly fitted or top-dose-only effect; inactive = no such curve, though single readings can be large or run the other way; note: potency is the fitted concentration of half-maximal effect; the source files actives as falling curves though it sought activators and does not explain the sign; nearly all actives have a fitted effect of over 65% in size; many hits overshoot -100%
Target sequence (P80244 whole entry, looked up): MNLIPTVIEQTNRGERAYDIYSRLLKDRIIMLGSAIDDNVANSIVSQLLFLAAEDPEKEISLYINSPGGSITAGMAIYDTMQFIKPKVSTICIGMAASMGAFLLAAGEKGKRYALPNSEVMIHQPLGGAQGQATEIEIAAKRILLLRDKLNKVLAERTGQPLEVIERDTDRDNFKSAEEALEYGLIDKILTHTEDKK
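FRET quenching reversal measured ClpP activation: 10 microg/mL B. subtilis ClpP at pH 8 with the FRET-FV decapeptide, read at 430 nm after 320 nm excitation. The 20-min minus 0-min signal was scaled between DMSO/no-enzyme wells and ADEP (5.8 microM final).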
TRPML1 inh – blocks the human TRPML1 channel. Q9GZU1. TRPML1-inducible cells, Ca2+ dye fluorescence, FDSS; stronger effect = lower value; inhibition of EC80 agonist-evoked calcium signal. activity change, negative = inhibition, % (no concentration beside the values). hit rate 0.02% among 390,000. AID 624415; in the data active means activity change below about -50%; inconclusive means about -30% to -50%; inactive means above about -30%;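 note: stimulus is agonist 54-4 at its EC80 concentration; % is set by controls: 0 for no effect and ±100 for the full control effect; compound concentration not given in the record; the text of the record puts the active cut at -80%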
Target sequence (Q9GZU1 whole entry, looked up): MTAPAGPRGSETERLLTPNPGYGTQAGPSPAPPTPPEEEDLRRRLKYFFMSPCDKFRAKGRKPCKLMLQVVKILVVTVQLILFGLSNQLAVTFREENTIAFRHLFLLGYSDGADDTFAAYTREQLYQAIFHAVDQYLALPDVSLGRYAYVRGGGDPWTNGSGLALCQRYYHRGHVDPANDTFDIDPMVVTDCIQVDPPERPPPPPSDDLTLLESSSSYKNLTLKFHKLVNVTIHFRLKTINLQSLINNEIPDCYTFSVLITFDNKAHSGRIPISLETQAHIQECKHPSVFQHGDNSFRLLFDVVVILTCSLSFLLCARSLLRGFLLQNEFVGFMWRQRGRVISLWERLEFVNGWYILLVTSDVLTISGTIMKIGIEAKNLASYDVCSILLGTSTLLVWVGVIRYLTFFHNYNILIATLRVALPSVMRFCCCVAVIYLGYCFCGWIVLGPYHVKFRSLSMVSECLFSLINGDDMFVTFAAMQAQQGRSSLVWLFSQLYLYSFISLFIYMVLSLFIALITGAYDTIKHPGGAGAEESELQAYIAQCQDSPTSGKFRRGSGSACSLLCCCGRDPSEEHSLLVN
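Calcium fluorescence in TRPML1-DL cells induced overnight with Tet: a 110 s read after compound pin addition, then a 110 s antagonist read after challenge with 54-4 at 4 uM final (EC80).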
TRPML1 ag – human mucolipin-1 channel agonism; activation, % (no concentration beside the values); Q9GZU1; hit rate 0.12% among 410,000; TRPML1-expressing cells, Ca2+ dye fluorescence, FDSS; host cell line not named in the record; reference of the full effect not given here; AID 624414; in the data active = activation above about 50%; inconclusive = about 30% to 50%; inactive = below about 30%; note: 0% is about no effect; the text of the record puts the active cut at 80%
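TRPML1-DL cells, Tet-induced overnight (~16 h, 37 degrees C), loaded 45-90 min at room temperature with Ca8 no-wash calcium dye plus quencher. FDSS fluorescence: 10 s baseline, compound pin-transfer, 110 s agonist read, then EC80 54-4 (4uM final) and 110 s antagonist read.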
Numbers without * were called inactive; ? = inconclusive; / = no result given; & = joins results of further samples; [ ] = another dose, or the depositor's remark.

SMILES	Menin MLL FP FL	Sfp PPTase inh	PINK1 expr mod	TRPV1 potentiator	ClpP mod	TRPML1 inh	TRPML1 ag
CN(CC(=O)Nc1c(Cl)cccc1Cl)C(=O)CCNS(=O)(=O)c1ccccc1C(F)(F)F	/	/	-3.1%	1	-2.4%	22	0.6
Cc1ccc(NC(=O)CN(C)C(=O)COc2cccc3ccc(C)nc23)cc1	/	/	0.6%	/	-16%	-1	-0.2
O=C(Cn1nnc(-c2ccc(F)cc2)n1)Nc1ccc2c(c1)OCCO2	-0.4	2%	1.0%	-15	/	7	0.6
O=C1C2C3C=CC(C3)C2C(=O)N1c1ccccc1 (centres undefined)	-1.2	-1%	0.0%	4	0.8%	8	-0.4
Cc1cc(C)c(-c2c(O)c3cccc4c3n(c2=O)CCC4)c(C)c1	2.3	31%[activator]	-0.1%	4	?	-6	-1.2
O=[N+]([O-])c1ccccc1NC(=S)N/N=C/c1ccc(O)c(O)c1	-3.8	-6%	4.2%	4	-0.7%	/	/
Cc1cc(=O)n2nc(-c3ccc(C(F)(F)F)cc3)sc2n1	0.5	-2%	0.8%	-2	-3.8%	3	-0.8
Cc1ccc(C(C(=O)NCC2CCCO2)N(Cc2ccccc2F)C(=O)Cn2nnc(-c3cccs3)n2)cc1 (centres undefined)	1.0	22%	2.3%	6	-1.5%	-2	0.4
CC(=O)c1ccc(NC(=O)CSc2nc(N3CCOCC3)nc(N3CCOCC3)n2)cc1	-0.4	0%	-0.2%	2	-7.7%	6	0.0
CCOc1ccc(NC(=O)c2cc(-c3ccc(C)c(F)c3)on2)c([N+](=O)[O-])c1	/	/	14%	/	0.8%	-17	-0.3
FC(F)(F)c1cc(Oc2ccccc2)nc(-c2ccccn2)n1	1.7	8%	0.6%[38.3 µM]	/	-1.2%	5	-0.1
O=C(Cn1ncn2cccc2c1=O)N1CCCCC1	2.6	10%	-2.8%	4	0.2%	-4	-0.3
CSc1nc2[nH]c3c(c2c2ncnn12)CCCC3	4.4	4%	-2.6%	-12	-2.3%	6	-1.0
Oc1ccc(C23CCCC2C2(CCCC2)c2ccc(O)cc2O3)c(O)c1 (centres undefined)	/	/	0.0%	2	-1.0%	27	0.5
S=c1[nH]nc(-c2ccc(Cl)cc2)n1/N=C/C=C/c1ccco1	7.4	56µM*	0.0%	-9	/	26	0.0
CC(C)Cc1nnc(NC(=O)CCC(=O)N2CCN(c3ccc(F)cc3)CC2)s1	-0.2	8%	-0.4%	14	-2.2%	-4	-0.5
COc1nc2ccc(C)cc2cc1-c1noc(-c2ccccc2)n1	?	-18%	5.7%[38.3 µM]	-1	88%	-9	0.8
CCCC(C)NC(=O)c1ccc(OCc2ccc(Cl)cc2)c(OC)c1 (centres undefined)	1.5	6%	29%	?	-15%	-9	3.7
CCOC(=O)c1c(NC(=O)CSc2nnc(C)s2)sc2c1CCC(C)C2 (centres undefined)	1.0	-19%	4.5%	10	-5.9%	13	2.5
NS(=O)(=O)c1ccc(CCNC(=O)C(=O)NCC2OCCN2S(=O)(=O)c2cccs2)cc1 (centres undefined)	-2.2	13%	2.1%	0	-0.6%	0	-0.7
O=C(CCc1c[nH]c2ccccc12)N/N=C/c1ccc2c(c1)OCO2	-0.6	?	4.4%	12	-3.3%	28	1.7
CN1CCC(NC(=S)NC2CC2)CC1	-4.0	4%	2.1%	-52	/	1	0.2
Cc1ccc(N(CC(=O)NC2CCCCC2)C(=O)Cn2nnc(-c3ccc(C)o3)n2)cc1	1.0	19%	1.9%	16	-1.7%	-2	0.6
COc1ccc(-c2oc3ccccc3c(=O)c2OC(C)=O)cc1	14	1%	3.4%	-5	-6.4%	6	0.0
CCC(=O)N(CCc1ccccc1)Cc1cc2cc3c(cc2[nH]c1=O)OCO3	1.6	11%	-3.3%[38.3 µM]	-16	14µM*	-18	-0.3

Molecules shown so far containing fluorine (seven):
SMILES	Menin MLL FP FL	Sfp PPTase inh	PINK1 expr mod	TRPV1 potentiator	ClpP mod	TRPML1 inh	TRPML1 ag
CN(CC(=O)Nc1c(Cl)cccc1Cl)C(=O)CCNS(=O)(=O)c1ccccc1C(F)(F)F	/	/	-3.1%	1	-2.4%	22	0.6
O=C(Cn1nnc(-c2ccc(F)cc2)n1)Nc1ccc2c(c1)OCCO2	-0.4	2%	1.0%	-15	/	7	0.6
Cc1cc(=O)n2nc(-c3ccc(C(F)(F)F)cc3)sc2n1	0.5	-2%	0.8%	-2	-3.8%	3	-0.8
Cc1ccc(C(C(=O)NCC2CCCO2)N(Cc2ccccc2F)C(=O)Cn2nnc(-c3cccs3)n2)cc1 (centres undefined)	1.0	22%	2.3%	6	-1.5%	-2	0.4
CCOc1ccc(NC(=O)c2cc(-c3ccc(C)c(F)c3)on2)c([N+](=O)[O-])c1	/	/	14%	/	0.8%	-17	-0.3
FC(F)(F)c1cc(Oc2ccccc2)nc(-c2ccccn2)n1	1.7	8%	0.6%[38.3 µM]	/	-1.2%	5	-0.1
CC(C)Cc1nnc(NC(=O)CCC(=O)N2CCN(c3ccc(F)cc3)CC2)s1	-0.2	8%	-0.4%	14	-2.2%	-4	-0.5

Continued:
SMILES	Menin MLL FP FL	Sfp PPTase inh	PINK1 expr mod	TRPV1 potentiator	ClpP mod	TRPML1 inh	TRPML1 ag
N#CCSc1nc2ccccc2c(=O)n1CC1CCCC1	-1.3	-4%	3.7%	-19	-5.3%	19	3.7
CCCN1CCN(CC(=O)Nc2nc3ccccc3s2)CC1	4.1	-8%	-0.7%	3	/	22	-0.3
O=C1CCC[C@@H]2C[C@@]3(C[C@@H]4CCN1[C@H]24)Nc1cc(Cl)ccc1NC3=NCc1ccccc1	/	/	0.4%	/	-1.4%&-3.8%	-5	-0.4&0.6
COc1ccc(-c2nc(CN3CCC(C(=O)NCc4ccc(F)cc4)CC3)c(C)o2)cc1OC	/	/	-0.9%	/	3.7%	-1	0.3
Cc1ccc2cc(CCNS(=O)(=O)c3ccc(Cl)cc3)c(=O)[nH]c2c1C	-4.3	0%	-1.1%	4	/	-14	-0.6
CC1(C)CC(C(CCN(Cc2ccccc2)C(=O)c2ccco2)c2ccc(F)cc2)CCO1 (centres undefined)	0.4	-11%	?	-22	-1.1%	63	5.0
Clc1ccccc1Nc1nc(-c2cccnc2)cs1	3.4	?	-0.4%	-2	/	1	0.5
CCOC(=O)c1ccc(-n2c(=S)sc3c(=O)[nH]c(C)nc32)cc1	2.4	13µM*	4.1%[38.3 µM]	-20	-0.8%	9	0.8
O=c1c2ccccc2nc2n1C(CSc1ccc(F)cc1)CS2 (centres undefined)	-4.3	17%	-0.8%	-18	1.2%	14	0.4
CCOC(=O)N1CCN(S(=O)(=O)c2ccc(F)c(C(=O)Nc3cc(C)cc(C)c3)c2)CC1	0.9	11%	8.4%[38.3 µM]	5	-1.8%	5	1.3
O=C1CSC(=S)N1c1cccc(O)c1	7.6	-21%	5.7%	12	1.7%	9	0.5
Clc1cc(Cl)cc(Nc2ncn[nH]2)c1	-0.6	-9%	2.0%	22	0.4%	1	-0.2
O=C(COC(=O)c1n[nH]c2ccccc12)NC(=O)NC1CCCCC1	1.8	9%	1.1%	5	?	-9	2.6
O=C(CCNC(=O)c1ccco1)Nc1ccc(Cl)cc1	1.7	-3%	1.2%	4	/	11	0.5
O=C1CC(N2CCC(c3nc4ccccc4o3)CC2)C(=O)N1c1ccc(Cl)c(C(F)(F)F)c1 (centres undefined)	1.1	5%	0.5%[38.3 µM]	-19	1.2%	-3	2.2
Cc1ccc[n+](CC(=O)Nc2c(Cl)cc(Cl)cc2Cl)c1	-7.1	20%	-0.6%	6	-1.8%	-10	-0.4
C=C(C)Cc1c(C)c(C#N)c2nc3ccccc3n2c1N1CCCCC1	2.1	0%	10%	13	-6.9%	14	0.6
c1ccc(-c2ccc3c(n2)CCCO3)cc1	/	/	2.6%	/	-7.1%	8	-0.7
Cc1oc(-c2cc(F)cc(F)c2)nc1CN1CCN(C(=O)c2ccco2)CC1	-0.9	-8%	-0.1%	-1	-3.0%	1	0.3
CC(C)NC(=O)c1ccccc1NC(=O)Cc1ccc(Br)cc1	0.1	18%	1.4%	0	0.9%	-4	-0.6
COc1ccc(C2CC(=O)c3cnc(N)nc3C2)c(OC)c1 (centres undefined)	-1.3	20%	-1.5%	-16	4.2%	9	0.6
O=C(NCc1ccco1)c1ccc(Cn2c(=O)c3sccc3n(Cc3cccc(F)c3)c2=O)cc1	-2.2	?	1.7%	9	-2.4%	26	1.8
CC(C)(C)OC(=O)NCCCCCNC(=O)c1[nH]cnc1C(=O)N[C@@H](Cc1ccccc1)C(=O)OC(C)(C)C	/	/	15%	/	1.4%	-1	-0.1
COc1cc(/C=N/N(C)C)ccc1OC(=O)c1ccco1	2.4	16%	0.4%	11	/	-7	0.0
N#Cc1ccc(OCC(=O)N2CCN(S(=O)(=O)c3ccc(Cl)s3)CC2)cc1	/	/	-0.7%	-17	-1.0%	24	-0.5
Cc1ccccc1-c1nc(Cc2ccccc2)no1	-2.2	-1%	?	4	-1.6%	-15	2.4
C/C(=N\N1CCN(c2ccccc2)CC1)c1ccccc1O	-6.1	8%	0.7%	-9	0.7%	/	/
CC(=O)Nc1ccc(OCCOc2ccc(/C=C3\C(=N)N4N=C(C(C)C)SC4=NC3=O)cc2)cc1	6.7	-21%	0.1%	9	0.4%	-2	0.2

Sfp PPTase inh, entries above that show a hit
molecule,Menin MLL FP FL,Sfp PPTase inh,PINK1 expr mod,TRPML1 inh
S=c1[nH]nc(-c2ccc(Cl)cc2)n1/N=C/C=C/c1ccco1,7.4,56µM*,0.0%,26
CCOC(=O)c1ccc(-n2c(=S)sc3c(=O)[nH]c(C)nc32)cc1,2.4,13µM*,4.1%[38.3 µM],9

Compound activity as filed in PubChem.

Random draw from the library; about 4.4% have a hit in one of these screens.
